D2 ag: Beta-Arrestin HTS for Positive Allosteric Modulators of the Human D2 Dopamine Receptor: Agonists. D(2) dopamine receptor (Homo sapiens), P14416. DiscoveRx PathHunter D2 beta-arrestin, luminescence, 90 min; 100% = 57 uM dopamine signal. activation, % (no concentration beside the values). actives 0.084% (n = 360,000); in the data active = activation above about 40%; inconclusive = about 15% to 40%; inactive = below about 15%; further: compound concentration not given in the record; the text of the record calls up to 30% inactive
Target sequence (P14416 whole entry, looked up): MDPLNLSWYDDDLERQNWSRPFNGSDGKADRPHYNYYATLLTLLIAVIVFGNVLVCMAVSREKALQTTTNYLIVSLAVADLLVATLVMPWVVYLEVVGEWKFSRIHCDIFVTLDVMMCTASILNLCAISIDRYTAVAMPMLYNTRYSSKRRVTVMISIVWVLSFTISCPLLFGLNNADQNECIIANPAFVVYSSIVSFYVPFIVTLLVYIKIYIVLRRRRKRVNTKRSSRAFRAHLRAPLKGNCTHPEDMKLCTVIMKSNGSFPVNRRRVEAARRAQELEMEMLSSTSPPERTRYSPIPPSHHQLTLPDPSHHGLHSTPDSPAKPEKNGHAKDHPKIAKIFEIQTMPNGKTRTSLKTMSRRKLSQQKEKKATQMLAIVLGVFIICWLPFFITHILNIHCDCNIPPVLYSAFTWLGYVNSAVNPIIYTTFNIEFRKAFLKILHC
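DiscoveRx PathHunter D2 beta-arrestin cells (2,100/well) attached overnight, then compound-stimulated 90 min at 37 C in HBSS/10 mM HEPES/0.1% Tween-20 buffer; beta-galactosidase complementation read by luminescence after 1 h at ambient temperature. Dopamine 57 uM final (EC100) as control.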
Six1-Eya2 blk: qHTS Assay for Inhibitors of the Six1/Eya2 Interaction | Homeobox protein SIX1 (Homo sapiens) + Protein phosphatase EYA2 (Homo sapiens), … | AlphaScreen GST-Six1/His-Eya2 binding, biochemical; active compounds read low; control for the full effect not named in the record | activity change, % (concentration not given with the values) | actives 0.56% (n = 360,000) | AID 651725, 2012; in the data active = activity change below about -65%; inconclusive = about -30% to -65%; inactive = above about -30%; further: on the % scale 0 is the no-effect control and ±100 the full control effect
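Six1/Eya2 binding was read as AlphaScreen signal after compounds were pinned into GST-Six1 plus His-tagged Eya2 (5X stock 250/500 nM) in pH 8.0 Tris/NaCl/TCEP buffer, beads added, then incubated 1 h, 37 C, dark.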
TRPML1 blocker: qHTS for Inhibitors of the Human Mucolipin Transient Receptor Potential 1 (TRPML1) | Mucolipin-1 (Homo sapiens), Q9GZU1 | TRPML1-inducible cells, Ca2+ dye fluorescence, FDSS; active compounds read low; inhibition of EC80 agonist-evoked calcium signal | activity change, negative = inhibition, % (test concentration not listed) | actives 0.02% (n = 390,000) | AID 624415, 2012; in the data active means activity change below about -50%; inconclusive means about -30% to -50%; inactive means above about -30%;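 further: stimulus is agonist 54-4 at its EC80 concentration; on the % scale 0 is the no-effect control and ±100 the full control effect; compound concentration not given in the record; the text of the record puts the active cut at -80%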
Target sequence (Q9GZU1 whole entry, looked up): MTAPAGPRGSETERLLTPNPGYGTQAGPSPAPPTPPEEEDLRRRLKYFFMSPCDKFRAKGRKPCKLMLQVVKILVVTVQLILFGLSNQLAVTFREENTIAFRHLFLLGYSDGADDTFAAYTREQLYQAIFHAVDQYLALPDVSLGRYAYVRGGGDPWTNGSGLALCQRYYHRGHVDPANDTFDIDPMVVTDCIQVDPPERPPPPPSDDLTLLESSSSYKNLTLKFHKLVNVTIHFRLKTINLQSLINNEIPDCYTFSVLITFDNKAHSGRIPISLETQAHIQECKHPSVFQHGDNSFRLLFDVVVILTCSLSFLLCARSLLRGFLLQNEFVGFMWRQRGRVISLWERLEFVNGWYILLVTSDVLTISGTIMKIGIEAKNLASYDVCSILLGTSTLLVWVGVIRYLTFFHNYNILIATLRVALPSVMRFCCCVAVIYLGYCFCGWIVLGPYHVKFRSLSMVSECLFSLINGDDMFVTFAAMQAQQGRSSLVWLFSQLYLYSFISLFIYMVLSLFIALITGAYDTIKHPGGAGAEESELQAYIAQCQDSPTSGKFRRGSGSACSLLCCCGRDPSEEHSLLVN
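TRPML1-DL cells, Tet-induced overnight (~16 h, 37 °C) at 1,500 cells/well, were loaded with Ca8 no-wash dye plus quencher for 45-90 min at room temperature. Compounds were pinned during FDSS kinetic reading; agonist 54-4 at EC80 (4 uM final) then added.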
TRPML1 agonist: qHTS for Agonists of the Human Mucolipin Transient Receptor Potential 1 (TRPML1); activation, % (no concentration beside the values); TRPML1-expressing cells, Ca2+ dye fluorescence, FDSS; host cell line not named in the record; reference of the full effect not given here; actives 0.12% (n = 410,000); Mucolipin-1 (Homo sapiens), Q9GZU1; in the data active = activation above about 50%; inconclusive = about 30% to 50%; inactive = below about 30%; further: 0% is about no effect; the text of the record puts the active cut at 80%
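TRPML1-DL cells, Tet-induced overnight (~16 h, 37 degrees C), loaded 45-90 min at room temperature with Ca8 no-wash calcium dye plus quencher. FDSS fluorescence: 10 s baseline, compound pin-transfer, 110 s agonist read, then EC80 54-4 (4uM final) and 110 s antagonist read.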
CtBP-E1A blk: qHTS Assay for Inhibitors of the CtBP/E1A Interaction; CtBP / adenovirus E1A interaction (AlphaScreen); AlphaScreen GST-E1A/His-CtBP binding, 1536-well; active compounds read low; control for the full effect not named in the record; activity change, % (concentration not given with the values); actives 0.49% (n = 340,000); in the data active means activity change below about -65%; inconclusive means about -30% to -65%; inactive means above about -30%; further: on the % scale 0 is the no-effect control and ±100 the full control effect
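Protein mix (5X: 125 nM each GST-E1A, His-CtBP) was incubated with pinned compound 2 h at 37 deg C in dark, in 50 mM Tris pH 8.0 buffer with 300 mM NaCl. Glutathione donor and nickel acceptor beads followed; AlphaScreen signal read after 1 h.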
PINK1 expr mod: A Quantitative High throughput Screen to Identify Chemical Modulators of PINK1 Expression | Potency, µM (doses to about 76.6 µM), for the others: at the top dose activation (PINK1 increase), actives largely listed as activators | actives 0.2% (n = 410,000) | PINK1 immunofluorescence, high-content cytometry, 24 h; active = well fitted activation curve with a large enough effect; inconclusive = small, poorly fitted or top-dose-only effect; inactive = flat fitted curve, though single readings scatter; cell line not stated here;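 further: potency means the concentration at half of the fitted maximal effect; % of control where 0% means no effect; nearly all actives have a fitted effect of over 65% in size; a mitochondrial uncoupler was the plate control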
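Cells are seeded, rested 12 hours, then given compound at five concentrations or DMSO for 24 hours. After fixation, blocking and antibody staining, PINK1 amount and mitochondrial localization are scored; CCCP serves as control.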
Starred values were filed as active, the others as inactive; ? = inconclusive; / = no result given; [ ] = another dose, or the depositor's remark.

Every second line gives: PINK1 expr mod	Six1-Eya2 blk	D2 ag	TRPML1 agonist	CtBP-E1A blk	TRPML1 blocker
- CC(C)CCNC(=O)c1c[nH]c2ccc(S(=O)(=O)N3CCOCC3)cc2c1=O
    -0.5%	5	3.1	-0.6	-4	11
- C/C(=N\O)c1noc(C)c1C(=O)Nc1nccs1
    2.3%	2	-0.3	0.3	-3	-6
- CCNC(=O)C1(C)CCCN(C(=O)c2oc3ccccc3c2C)C1 (stereo not drawn)
    0.6%	15	-6.2	-0.3	30	/
- Cc1c(/C=N/NC(=O)C2(O)c3ccccc3-c3ccccc32)cnn1C
    0.7%	1	-2.2	-0.1	5	18
- c1ccc(-c2cc3ccccc3[nH]2)cc1
    6.9%	-8	-6.1	-0.5	3	-2
- CCc1nc2sc(C#N)c(N)c2c2c1CCCC2
    -3.0%[38.3 µM]	3	-0.8	-0.3	7	0
- COCC(=O)N(Cc1cc2cccc(C)c2[nH]c1=O)c1ccccc1
    0.6%	7	7.6	-0.4	2	-5
- CN1/C(=C/C=C/c2n(C)c3cc([N+](=O)[O-])c([N+](=O)[O-])cc3[n+]2C)C(C)(C)c2ccccc21
    7.7%	?	-10	1.0	?	-16
- COc1cc(-c2n[nH]c(=S)n2C(C)c2ccccc2)cc(OC)c1OC (stereo not drawn)
    1.9%	-1	-3.5	0.8	-3	15
- Cn1ncc2c(=S)nc(Cl)[nH]c21
    -0.8%	0	-4.4	0.3	-15	-12
- Cc1cc(C)c[n+](-c2nc3ccccc3nc2[N-]S(=O)(=O)c2cccs2)c1
    -2.2%	25	-0.1	-0.1	4	-10
- COc1cc(Cl)c(C)cc1NC(=O)CSCC#N
    5.2%[38.3 µM]	24	-2.5	0.9	47	-13
- Cc1ccc(Cl)c(OC(=O)c2ccc(N3CCOCC3)c([N+](=O)[O-])c2)c1
    1.1%	?	1.5	-0.4	-23	18
- CCCCn1c(O)c(C=NCCCN(C)C)c(=O)[nH]c1=O
    -0.4%	17	-1.7	-1.3	0	0
- O=C(CSc1nc2[nH]ncc2c(=O)[nH]1)Nc1ccccc1
    1.2%	-5	-4.3	0.3	-15	-4
- Cn1ccc(C(=O)N/N=C/c2c[nH]c3ccccc23)n1
    1.6%	-6	-4.5	0.4	-2	2
- C[C@@H]1C=C(C(=O)N2CCN(Cc3ccccc3)CC2)O[C@H](OCc2ccc(CO)cc2)C1
    0.3%	13	0.9	-0.9	35	-7
- Cc1cc(C(C)(C)C)cc(C)c1CCNC(=O)c1c(C)noc1C
    4.7%	-20	1.3	1.2	-1	27
- COc1ccc(C)cc1NS(=O)(=O)c1ccc2c(c1)NC(=O)C(C)S2 (stereo not drawn)
    4.1%	5	2.1	-0.8	1	0
- O=c1c2ccccc2nc(SCc2ccccc2)n1CC1CCCO1 (stereo not drawn)
    1.8%	5	-5.1	/	27	/
- Fc1ccc(-c2nnc(CN3CCN(c4ncc(C(F)(F)F)cc4Cl)CC3)o2)cc1
    -1.6%	-1	-0.3	-0.7	-2	-12
- COc1ccc2oc(-c3ccc(C)c(NC(=O)c4ccc5c(c4)OCCO5)c3)nc2c1
    0.7%	/	/	-0.6	/	0
- CC(C)CN1C(=O)C(=O)N(CC(=O)c2ccc3c(c2)OCO3)C1=O
    1.7%	5	-3.4	0.1	-7	-13
- COc1ccc(-n2c(Cc3cccn3C)nnc2SCC(=O)Nc2cc(C)cc(C)c2)cc1
    1.5%	-24	-0.3	1.6	-12	13
- OCCN1CCN(CCCN2c3ccccc3CCc3ccccc32)CC1
    -0.2%	-8	-1.3	-0.8	0	21
- CCOc1ccc(-c2ccc(SCc3ccccn3)nn2)cc1
    1.5%	-2	0.7	0.7	7	-10
- O=C(O)C1=C[C@H](c2cccs2)C[C@H](OCCCCO)O1
    2.0%	-13	-1.8	0.4	-23	-4
- O=C(COC(=O)c1ccc2ccccc2c1O)NCc1ccccc1
    14%	-2	5.2	-0.5	/	1
- O=C(NC(=S)Nc1ccccc1N1CCCC1)c1ccco1
    3.0%	-16	-3.0	-0.2	-23	-3
- COc1ccc(NC(=O)c2cccc(-n3c(C)ccc3C)c2)c(OC)c1
    1.5%	-14	-0.9	0.3	-14	5

An excerpt from above in order of the Six1-Eya2 blk value, largest number first:
mol | Six1-Eya2 blk | D2 ag | CtBP-E1A blk | TRPML1 blocker
O=c1c2ccccc2nc(SCc2ccccc2)n1CC1CCCO1 (stereo not drawn) | 5 | -5.1 | 27 | /
Fc1ccc(-c2nnc(CN3CCN(c4ncc(C(F)(F)F)cc4Cl)CC3)o2)cc1 | -1 | -0.3 | -2 | -12
CCOc1ccc(-c2ccc(SCc3ccccn3)nn2)cc1 | -2 | 0.7 | 7 | -10

Remaining list, next part:
Every second line gives: PINK1 expr mod	Six1-Eya2 blk	D2 ag	TRPML1 agonist	CtBP-E1A blk	TRPML1 blocker
- Cc1sc2nc(COC(=O)c3ccc(N4CCCC(C)C4)c([N+](=O)[O-])c3)[nH]c(=O)c2c1C (stereo not drawn)
    -0.6%	-16	-2.4	-0.5	3	1
- O=C(NCCCCCCNC(=O)N1CCCCCC1)N1CCCCCC1
    ?	3	1.8	1.2	3	-13
- COc1cc(Cl)c(C)cc1NC(c1ccccc1)c1nnc(-c2ccccc2Cl)o1 (stereo not drawn)
    4.9%	/	/	0.0	/	-5
- CC(C)Cc1nn2c(=O)cc(COc3ccc(NC(=O)c4ccco4)cc3)nc2s1
    7.0%	6	-4.6	0.1	3	27
- Cc1ccc(Oc2nc3ccccc3n3c(C)nnc23)c(C)c1
    4.1%	0	1.4	0.3	4	5
- CN(c1ccccc1)S(=O)(=O)c1cccc(NC(=O)CN2C(=O)NC3(CCCCC3)C2=O)c1
    0.9%	-3	8.1	-0.5	2	-4
- Cc1nc(N)sc1-c1csc(Nc2ccc(S(N)(=O)=O)cc2)n1
    0.0%	?	-1.7	-0.3	/	9
- Nc1ccc(S(=O)(=O)Nc2nc3ccccc3o2)cc1
    -1.6%	3	-3.9	0.7	/	6
- Cc1ccc(CNC(=O)CCn2cnc3ccccc3c2=O)cc1
    0.8%	/	/	-0.8	/	80
- CC(C)CC(C(=O)NC1CCCC1)N(Cc1cccs1)C(=O)c1snc(C(N)=O)c1N (stereo not drawn)
    7.1%	24	-2.0	1.5	0	-3
- CCOC(=O)Cn1cc(Cl)cc(C(=O)Nc2ccccc2)c1=O
    0.9%	15	1.6	1.2	11	-2
- Cc1ccc(-c2noc(-c3nnn(CC(=O)Nc4ccc(C)cc4Cl)c3N)n2)cc1
    -0.5%	/	/	0.8	/	-13
- Cc1ccccc1OCCOCCN1CCCCCC1
    1.6%	3	0.1	0.4	-17	-9
- O=C(NCc1cccs1)c1cnc2sccn2c1=O
    2.0%	6	-0.4	-0.4	2	18
- COc1ccc(CCNc2nc3c(-c4cccc(F)c4)nnn3c3ccccc23)cc1OC
    -1.6%	/	/	0.7	/	5
- C=CCN1CCN(C(c2ccc(OC)c(OC)c2)c2nnnn2C(C)(C)C)CC1 (stereo not drawn)
    0.2%	4	-1.8	-1.5	10	40
- CCn1cc(C(=O)OCC(=O)Nc2cc(Cl)ccc2OC)c(=O)c2ccc(C)nc21
    1.6%	/	/	-0.8	/	-13
- CCn1c(SCC(=O)c2[nH]c(C)c(C(C)=O)c2C)nnc1-c1ccncc1
    10%[38.3 µM]	0	-2.4	-0.3	7	-1
- CC(=O)c1cccc(N/C=C\C(=O)c2ccc(C)cc2)c1
    -1.9%	1	0.0	1.5	6	57
- Cc1ccc(CS(=O)(=O)CCC(=O)NCCCN2CCCC2)cc1
    /	-4	0.0	0.9	-8	?
- Cc1cc(C)cc(OCC(=O)Nc2ccccc2C(=O)N2CCOCC2)c1
    -1.1%	-7	-3.1	0.7	6	-10
- CCOC(=O)c1ccc(NS(=O)(=O)CC)cc1
    0.4%	0	-5.3	-0.7	5	6
- CC1(CCc2ccccc2)NC(=O)N(Cc2nnc(-c3ccccc3Br)o2)C1=O (stereo not drawn)
    -4.4%	11	-1.9	0.8	0	-1
- Cc1ccc(S(=O)(=O)NCC2CCC(C(=O)NCCCN3CCCC3=O)CC2)cc1 (stereo not drawn)
    0.1%	4	-1.5	-0.5	4	-9
- CCOC(=O)C1CCN(C(=O)C(CCSC)NC(=O)COc2ccccc2)CC1 (stereo not drawn)
    0.2%	3	0.2	-1.2	/	-6
- CC(C)CC1C(=O)N(Cc2cn(CCC3OCCCO3)nn2)CCS(=O)(=O)N1Cc1ccc(-c2ccc(Cl)c(Cl)c2)cc1 (stereo not drawn)
    4.0%	-3	-3.5	1.0	4	1
- O=c1c2ccccc2cnn1-c1ccc2ccccc2c1
    -2.0%[38.3 µM]	6	0.2	0.0	6	-8
- CCCCNC(=O)COC(=O)c1ccc(NS(=O)(=O)c2ccc3c(c2)OCCO3)cc1
    -1.6%	-2	-2.1	-0.9	7	-6
- Cc1cc(C)cc(NC(=O)CSc2c(C(C)C)cnc3c2c(=O)n(C)c(=O)n3C)c1
    -0.2%	/	/	2.1	/	-6
- CCc1ccc(NC(=O)N2CCN(c3ccc(F)cc3)CC2)cc1
    1.4%	10	-5.9	0.7	/	9

Full records, looked up by structure:
`CC1(CCc2ccccc2)NC(=O)N(Cc2nnc(-c3ccccc3Br)o2)C1=O` (stereo not drawn) across the screens: PINK1 expr mod: -4.4%; Six1-Eya2 blk: 11; D2 ag: -1.9; TRPML1 agonist: 0.8; CtBP-E1A blk: 0; TRPML1 blocker: -1
`CCn1cc(C(=O)OCC(=O)Nc2cc(Cl)ccc2OC)c(=O)c2ccc(C)nc21` across the screens: PINK1 expr mod: 1.6%; Six1-Eya2 blk: /; D2 ag: /; TRPML1 agonist: -0.8; CtBP-E1A blk: /; TRPML1 blocker: -13

Screening results deposited in PubChem by National Center for Advancing Translational Sciences (NCATS).
